AmpC nodet inh – blocks E. coli AmpC beta-lactamase in absence of detergent; P00811; AmpC nitrocefin hydrolysis, absorbance 480 nm, no detergent; potencies from a single point are estimates; Potency, µM (series often up to 28.7 µM), for the others: at the top dose activity change, negative = inhibition; hit rate 1.8% among 71,000; AID 585; active = falling curve, for most hits resting on a single point; inconclusive = weak or doubtful change; inactive = flat or rising curve; note: % of control where 0% means no effect; about half of the hits show no inhibition at the top dose; a quarter of the inactives give rising signals
Target sequence (P00811 whole entry, looked up): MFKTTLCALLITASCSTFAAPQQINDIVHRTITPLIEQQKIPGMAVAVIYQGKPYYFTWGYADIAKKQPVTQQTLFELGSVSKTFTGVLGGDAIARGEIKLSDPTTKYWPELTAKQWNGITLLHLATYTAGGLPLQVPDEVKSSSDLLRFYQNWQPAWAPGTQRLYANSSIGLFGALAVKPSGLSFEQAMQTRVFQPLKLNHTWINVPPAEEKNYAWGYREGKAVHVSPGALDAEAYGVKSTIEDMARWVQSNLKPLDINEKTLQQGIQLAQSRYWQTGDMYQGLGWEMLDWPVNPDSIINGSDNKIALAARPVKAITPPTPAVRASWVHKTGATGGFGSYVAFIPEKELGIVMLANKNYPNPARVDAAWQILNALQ
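AmpC, 20 mM phosphate pH 7.0; 15 min cpd preinc, RT; start with nitrocefin (800 uM stock); A480 kinetic read, 20 s intervals, 4 min. No-enzyme wells = negative control.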
* hit, by the source's call; u = inconclusive; & = joins results of further samples; [ ] = another dose, or the depositor's remark. Potency is the fitted concentration of half-maximal effect. A portion of the library (hit frequency here may not be typical).

SMILES | AmpC nodet inh
CCC(C)NC(=O)C(Cc1ccccc1)n1cccc1 (centres undefined) | 2%
O=C(CN1CCCCC1)Nc1cc(Cl)ccc1Cl | -14%
CCOC(=O)Cc1nnc(NC(=O)C(CC)Sc2nncn2C)s1 (centres undefined) | 31%
O=C(O)[C@H](Cc1ccccc1)NC(=O)N1CCOCC1 | -1%
CS(=O)(=O)Nc1cccc(-c2nc(-n3ccnc3)c3ccccc3n2)c1 | 9%
CCOC(=O)C1CCN(S(=O)(=O)c2ccc(NC(=O)OC)cc2)CC1 | 6%
CCOC(=O)Nc1cccc(Nc2ccccc2)c1 | -10%
CS(=O)(=O)N1CCN(C2CCN(Cc3ccccc3)CC2)CC1 | -7%
CC(CN1CCN(C)CC1)OC(=O)c1ccccc1Cl (centres undefined) | 2%
COc1cc(C)nc(N(Cc2ccccc2)S(=O)(=O)c2ccccc2)n1 | -6%
O=C1CC(N(O)c2ccccc2)C(=O)N1Cc1ccccc1 (centres undefined) | -11%
CC(=O)Nc1cccc(Cn2cccn2)c1 | -10%
CN(CCC(=O)O)S(=O)(=O)c1ccccc1 | -6%[5.75 µM]
CCCn1c(SCc2ccc(Cl)cc2)nc2c1c(=O)[nH]c(=O)n2C | 44%
OC(CNCC1CCCO1)Cn1c2ccccc2c2ccccc21 (centres undefined) | 41%
COc1ccc(OC)c(C(O)c2nc3ccccc3n2C(C)C)c1 (centres undefined) | 6%
CC(C)(C)OC(=O)NCCCC(CCCNC(=O)OC(C)(C)C)C(=O)O | 6%
CC(C)CC(NC(=O)C1CCCCC1)C(=O)NCc1ccccn1 (centres undefined) | -1%
Cn1nc(C(=O)NCc2ccc(F)cc2)c2ccccc2c1=O | 79%
CC1CN(C(=O)c2cc3c(s2)CCC3)CC(C)O1 (centres undefined) | -3%

Random excerpt: seven entries already listed.
SMILES | AmpC nodet inh
CC(CN1CCN(C)CC1)OC(=O)c1ccccc1Cl (centres undefined) | 2%
O=C(O)[C@H](Cc1ccccc1)NC(=O)N1CCOCC1 | -1%
O=C(CN1CCCCC1)Nc1cc(Cl)ccc1Cl | -14%
COc1cc(C)nc(N(Cc2ccccc2)S(=O)(=O)c2ccccc2)n1 | -6%
O=C1CC(N(O)c2ccccc2)C(=O)N1Cc1ccccc1 (centres undefined) | -11%
CCC(C)NC(=O)C(Cc1ccccc1)n1cccc1 (centres undefined) | 2%
CC(C)(C)OC(=O)NCCCC(CCCNC(=O)OC(C)(C)C)C(=O)O | 6%

Going on with the list.
SMILES | AmpC nodet inh
CCCC/C=C/C(NC(=O)c1ccc(C(=O)OC)cc1)c1ccccc1 (centres undefined) | 10%
COc1ccc(CNc2nc(-c3cccc(C#N)c3)nc3ccccc23)c(OC)c1 | 23%
O=C(c1ccco1)N1CCN(Cc2nnnn2CCc2ccccc2)CC1 | 18%
N#CC1=C(N)n2c(s/c(=C\c3ccco3)c2=O)=C(C#N)C1c1ccco1 (centres undefined) | -22%
CC(C)Cc1cc(C(=O)NCCc2ccccc2)no1 | 2%
COC(=O)C1=C(C)NC(=O)NC1c1ccc(OCC(=O)N2CCCCC2)cc1 (centres undefined) | 3%
CC(=O)C1C(c2cn(-c3ccccc3)nc2-c2cccs2)NC(=O)NC1(O)C(F)(F)F (centres undefined) | 49%
CC1(C)S[C@@H]2[C@H](NC(=O)[C@@H](NC(=O)N3CCNC3=O)c3ccccc3)C(=O)N2[C@H]1C(=O)O | 5µM*
BrC(c1cccc2ccccc12)c1cccc2ccccc12 | -11%[5.75 µM]
O=C(Nc1ccc(Cl)c(Cl)c1)OCc1cccnc1 | -20%
COc1ccccc1CNc1cc(-c2ccccc2C(F)(F)F)ncn1 | 34%
CCOCCCNC(=O)c1cc2c(=O)n3cccc(C)c3nc2n1C | 8%
Cc1ccc2cc3cc(C(=O)NCCCN4CCc5ccccc5C4)oc3nc2c1 | 69%
O=S(=O)(Cc1ccccc1)N1CCN(C2Cc3ccccc3C2)CC1 | -24%
COc1cccc(NC(=O)C2CCCN2C(=O)Nc2ccccc2F)c1 (centres undefined) | -3%
Cn1cccc1C(=O)c1ccc(Cl)cc1Cl | 8%
CN(C)Cc1ccccc1-c1nc(NC2CC2)c2ccccc2n1 | 12%
O=C(Nc1ccccc1C(=O)N1CCCC1)c1cccc(S(=O)(=O)N2CCCCC2)c1 | 28%
Oc1ccc2cc(SSc3ccc4cc(O)ccc4c3)ccc2c1 | 16µM*
Cn1c(CN2CCOCC2)nnc1SCC(=O)Nc1ccc2c(c1)OCCO2 | 0%
Cc1nc(NC2CCCCC2)c2nc(-c3ccccc3)n(CC3CCN(C)CC3)c2n1 | 45%
COC(=O)C1=C(C(=O)c2ccc(C)cc2)C(c2ccc(OC)c(OC)c2)n2nnnc2N1 (centres undefined) | 4%
O=S(=O)(c1ccc(N2CCCC2)cc1)C(F)(F)F | -8%
O=C(CN1CCC(n2nnc3cc(C(F)(F)F)ccc32)CC1)N1CCc2ccccc21 | 80%
O=C(Cn1nc(-c2ccccc2)ccc1=O)NCC1COCCO1 (centres undefined) | 14%
O=C1CN(C(=O)CSc2nnnn2-c2ccc(Cl)cc2)c2ccccc2N1 | 8%
CC(C)NC(=O)N1CCCC2(CCN(S(=O)(=O)c3ccccc3)CC2)C1 | 44%
C=CCn1c(SCC(=O)Nc2ccc3c(c2)OCCO3)nnc1-c1ccco1 | 8%
CCC/C=C(\CCC)C(NC(=O)c1cccs1)c1ccc(C(F)(F)F)cc1 (centres undefined) | -5%
O=C(CN(CCCN1CCOCC1)C(=O)Cn1nnc(-c2ccc(F)cc2)n1)NC1CCCCC1 | 86%
CCN(CC)[C@@H](C)C(=O)N1c2ccccc2Sc2ccccc21 | 23%
COc1ccccc1N1CCN(C(=O)c2oc3ccccc3c2C)CC1 | 67%
CCc1nn(CC(=O)NCCN2CCN(C)CC2)c(=O)c2cc3occc3n12 | 3%
Cc1ccc(C(C)C)c(OCCN)c1 | -5%
O=C(Nc1cccc(Cl)c1Cl)C1CCN(c2ncccn2)CC1 | 9%
CCOC(=O)c1cc(C)n(Cc2ccccc2)c1C | 13%
CCN(CCCNc1ncnc2nc[nH]c12)c1cccc(C)c1 | -10%
O=C(c1cccs1)N(Cc1cccc(Cl)c1)C1CCS(=O)(=O)C1 (centres undefined) | 22%
CCc1nn2c(=O)cc(N3CCN(c4cc(C)nc5ccccc45)CC3)nc2s1 | 3%
O=C1C2CC=C(Cl)CC2C(=O)N1CC1Cc2ccccc2CO1 (centres undefined) | 23%
CC(=O)c1cc2ccccc2oc1=O | 3%[12.8 µM]
O=C1CCCCC1 | -8%
OCCCNCc1ccccn1 | 1%[5.75 µM]
CC(C)Cc1cc(-c2ccco2)c(C#N)c(N)n1 | -11%
O=C(c1ccncc1)N1CCC[C@@]2(CCN(c3ccccc3)C2)C1 | 108%
COc1ccc(S(=O)(=O)N2CCC(C(=O)N3CCc4ccccc4C3)CC2)cc1OC | 98%
Cc1ccc(C(=O)NCc2nnc(SCC(=O)Nc3sc4c(c3C#N)CCCC4)n2C)cc1 | 78%
Cc1ccc(OCC(=O)NCCO)cc1C | 2%
CC(=O)O[C@H]1CC[C@@]2(C)[C@@H](CC[C@H]3[C@H]2CC(=O)[C@@]2(C)[C@@H]3C[C@H]3CC(C)=CC(=O)[C@H]32)C1 | 43%[5.75 µM]
O=C(O)c1cn[nH]c1-n1cnnn1 | -11%
COc1ccc(NC(=O)c2ccc(OC)cc2)cc1 | -4%
CC(OC(=O)c1cccs1)C(=O)NCc1ccccc1 (centres undefined) | -2%
Cc1ccc2[nH]c(=O)c3cc(C(=O)N(C)Cc4ccco4)sc3c2c1 | u
Cc1cc(NC(=O)c2noc3c2CCc2ccccc2-3)n(-c2ccccc2)n1 | 2.5µM*[single pt active]
Cc1nnc2sc(-c3cccc(NC(=O)c4cccnc4)c3)nn12 | -12%
O=C1c2ccccc2C(=O)N1CCCCN1CCN(CCCCN2C(=O)c3ccccc3C2=O)CC1 | 26%
Cc1ccc2cc(CN(Cc3cccs3)Cc3nnnn3C(C)(C)C)c3nnnn3c2c1 | 4%
C=CCN(C(=O)Nc1ccc(Cl)cc1)C1CC(=O)N(c2ccc(OC)cc2)C1=O (centres undefined) | 16%
COc1cc(C(=O)Nc2cccc(-c3nncn3C)c2)cc(OC)c1OC | 7%
Cc1cccc2cc(CN(CCCO)C(=O)Nc3ccc(Cl)cc3)c(=O)[nH]c12 | 94%

Next section:
SMILES | AmpC nodet inh
CSC1=C(C#N)C(C)C2=C(CC(C)(C)CC2=O)N1 (centres undefined) | -12%
COc1cc(NS(=O)(=O)c2ccc(NC(=O)c3ccc(C)o3)cc2)nc(OC)n1 | -5%
CCCCC(=O)Nc1ccc(C(=O)N2CCCC(C(=O)OCC)C2)cc1 (centres undefined) | 34%
COc1cc(NC(=O)C2C3C=CC(C3)C2C(=O)O)c(OC)cc1Cl (centres undefined) | -5%
CCCc1ccc(Oc2cn[nH]c2-c2ccc(O)c(C)c2O)cc1 | 16%
O=C(COC(=O)c1ccc(S(=O)(=O)N2CCOCC2)cc1)NC1CCCC1 | 18%
Cc1oc(-c2ccc3c(c2)OCCO3)cc1C(=O)NC(CCC(=O)O)C(=O)O (centres undefined) | -2%
CCn1cc(C(=O)NCC2CCCO2)c(=O)c2cc(S(=O)(=O)N3CCCCCC3)ccc21 (centres undefined) | 134%
O=C(CN1CCN(Cc2ccccc2)CC1)NCC1COc2ccccc2O1 (centres undefined) | 19%
COc1cccc(NC(=O)NC2(C(F)(F)F)Oc3ccccc3O2)c1 | -9%
Cn1c(=O)[nH]c(=O)c2c1nc(OC(=O)c1ccccc1)n2CC(O)COc1ccccc1 (centres undefined) | -4%
CCCCN(C)C(=O)C1CCN(Cc2ccccn2)CC1 | 4%
Nc1ccc(C(=O)c2ccccc2C(=O)O)cc1Cl | -7%
O=C(Nc1ccc2c(c1)oc1ccccc12)N1CCOCC1 | 23%
CCOC(=O)/C=C1\NC(C)(C)Cc2cc(OC)c(O)cc21 | 5%
O=C(CN1C(=O)C2CC=C(Cl)CC2C1=O)N1CCOCC1 (centres undefined) | -4%
CCC(=O)Nc1ccc(Cl)c(NC(=O)c2ccc(Br)o2)c1 | 48%
Cc1cc(C)nc(N2CCN(c3nc(C)cc(C)n3)CC2)n1 | 12%
O=C(c1nn2c(C(F)(F)F)cc(-c3ccccc3)nc2c1Cl)N1CCOCC1 | 62%
CCN1C(=O)c2cccc3c(S(=O)(=O)Nc4c(C)n(C)n(-c5ccccc5)c4=O)ccc1c23 | 18%
CCn1c(SCC(=O)N2CCc3ccccc32)nc2c(c1=O)SC(C)C2 (centres undefined) | -3%
COC(=O)[C@H](CC(C)C)NC(=O)Nc1ccc2c(c1)OCCO2 | 1%
O=C(CCSc1nc(-c2ccco2)cc(C(F)(F)F)n1)N1CCCc2ccccc21 | 55%
N[C@H](C(=O)O)[C@@H](O)c1cnc[nH]1 | 7%[5.75 µM]
Cc1cc(C)c2cc(CN(Cc3ccco3)C(=O)NCc3ccccc3)c(=O)[nH]c2c1 | 29%
Cc1nc(C)c(C(=O)OCC(=O)N2CCN(c3ccccc3)CC2)s1 | 34%
CN1C[C@H](c2ccccc2)C(O)([C@]2(c3ccccc3)CN(C)C[C@@H](c3ccccc3)C2=O)[C@H](c2ccccc2)C1 (some centres undefined) | 9%[5.75 µM]
COC(=O)C(C)Sc1nnc(Cc2cc(=O)[nH]c(=O)[nH]2)n1-c1cc(C)ccc1C (centres undefined) | 2µM*
COc1ccc(C(=O)Nc2nc3ccccc3[nH]2)cc1OC | 9%
CN=C(N)NCCC[C@H](N)C(=O)O | 0%&7%
CC(=O)N1CCC2(CC1)CN(C(c1ccccc1)c1ccccc1)C2 | 6%
Cc1noc(C)c1COC(=O)c1ccc2ccccc2n1 | 4%
Cc1cccc(CC(=O)Nc2c3c(nn2-c2cccc(Cl)c2)CS(=O)C3)c1 (centres undefined) | 44%
COc1cc(C2C(C(=O)N3CCOCC3)=C(C)NC3=C2C(=O)CCC3)ccc1OC(C)=O (centres undefined) | -7%
Cn1c(=NC(=O)CN2C(=O)C3CC=CCC3C2=O)sc2ccccc21 (centres undefined) | 46%
CC(=O)Nc1ccc(-c2nn3c(C)nnc3s2)cc1C | -7%
C=CCN1C(=O)CS/C1=N/c1nccs1 | 2%
CSc1ccc(/C=N/n2c(C)cc(C)cc2=O)cc1 | 12%
CN1CCN(CCP(=O)(c2ccccc2)c2ccccc2)CC1 | 3%

Rewritten in markdown: 3 of the compounds above.
| Compound | AmpC nodet inh |
| --- | --- |
| COC(=O)C(C)Sc1nnc(Cc2cc(=O)[nH]c(=O)[nH]2)n1-c1cc(C)ccc1C (centres undefined) | 2µM* |
| COc1ccc(C(=O)Nc2nc3ccccc3[nH]2)cc1OC | 9% |
| CN=C(N)NCCC[C@H](N)C(=O)O | 0%&7% |

7 compounds from above, arranged by SMILES length, high to low:
SMILES | AmpC nodet inh
CCCCC(=O)Nc1ccc(C(=O)N2CCCC(C(=O)OCC)C2)cc1 (centres undefined) | 34%
COc1cccc(NC(=O)C2CCCN2C(=O)Nc2ccccc2F)c1 (centres undefined) | -3%
COc1ccc(OC)c(C(O)c2nc3ccccc3n2C(C)C)c1 (centres undefined) | 6%
Oc1ccc2cc(SSc3ccc4cc(O)ccc4c3)ccc2c1 | 16µM*
CC(OC(=O)c1cccs1)C(=O)NCc1ccccc1 (centres undefined) | -2%
Cc1ccc(OCC(=O)NCCO)cc1C | 2%
CC(=O)c1cc2ccccc2oc1=O | 3%[12.8 µM]

Screens deposited in PubChem BioAssay by National Center for Advancing Translational Sciences (NCATS).
